Bioassay records as filed in PubChem.
FGF22 binding – binders of recombinant human FGF22 by thermal shift; Q9HCT0; SYPRO orange fluorescence; percent of sucrose octasulfate shift, DMSO zero; calls only at 9.99 µM; 340,000 tested, 1.5% active;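 active = melting point raised past a set limit in the mean and every replicate; inconclusive = no clear call; three in four hits are not shown here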
Target sequence (Q9HCT0 whole entry, looked up): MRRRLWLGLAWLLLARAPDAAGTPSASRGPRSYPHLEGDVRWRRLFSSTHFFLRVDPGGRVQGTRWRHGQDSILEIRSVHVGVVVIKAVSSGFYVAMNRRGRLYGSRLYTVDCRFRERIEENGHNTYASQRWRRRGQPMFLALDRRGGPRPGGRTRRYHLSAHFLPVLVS
RanGTP-Imp inh – disruptors of Ran-importin-beta complex formation – biochemical, FRET, CFP-Ran, YFP-importin-beta, homogeneous, primary screen; 300,000 tested, 1.1% active; inhibition, % (no concentration beside the values); AID 2216; cell-free CFP-Ran/YFP-importin-beta FRET ratio;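 active = most replicates above 15%; inconclusive = exactly half above 15%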;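 note: 0% = DMSO wells and 100% = Ran loaded with GDP instead of GTP; wells of about 40 µL received 100 nL stock; the first replicate is given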
Beta cell apopt – beta cell apoptosis inhibition; 300,000 tested, 0.8% active; protection from apoptosis, % (concentration not given with the values); INS-1E cytokine-induced death, ATP luminescence, 48 h; percent of positive-control rescue, neutral wells zero;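 active = all replicates at 75% or more, or half of them and the mean; inconclusive = half reach 75% but not the mean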;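 note: 0% = cytokine-treated negative control wells and 100% = positive control rescue; higher means more ATP so stronger rescue from cytokine killing; wells of about 40 µL received 100 nL stock; the first replicate is given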
T cruzi inh – T. cruzi replication inhibition; AID 1885; T. cruzi beta-gal in NIH3T3, luminescence, 90 h; inhibition, % (concentration not given with the values); 300,000 tested, 1.4% active;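 active = mean inhibition across valid replicates above about 55%, limit read from the data; inconclusive = mean below that limit but half or more replicates reach it; inactive = mean below it, under half of replicates reach it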;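 note: signal also drops with host cell toxicity which is not excluded here; 0% = plate median of DMSO wells and 100% = zero luminescence signal; higher percent means less beta-gal luminescence so fewer parasites; stock transfer was 50 nL into about 50 µL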
rRNA inh HTS – inhibits bacterial ribosomal RNA function over humanized ribosomes; E. coli WT GFP vs humanized-ribosome RFP mutants, fluorescence, 24 h; hits give low values; DMSO median 0, no signal -100; GFP signal change (wild-type ribosome), % (no concentration beside the values); 350,000 tested, 1.6% active; AID 720706;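 active = significant combined selectivity score with lowered wild-type GFP, culture density cut under 30%, mutant RFP and density less affected; inactive = any of these conditions unmet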; note: one replicate is shown; some compounds called inactive have numbers as strong as hits
MLL AF4-AF9 inh – MLL-AF4/AF9 protein interaction inhibition | AlphaScreen, biotin-AF4 peptide binding to FLAG-AF9 | 350,000 tested, 0.47% active | AID 651704 | inhibition, % at 10 µM | P42568;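 active = every replicate reaching a set inhibition limit, whatever the replicate mean, cut at about 25% in these data; inconclusive = mean inhibition reaches that limit but some replicates miss it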;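 note: 0% = plate neutral control median and 100% = total signal loss; the record names both 10 and 1 µM as test concentration; the first replicate is given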
Target sequence (P42568 whole entry, looked up): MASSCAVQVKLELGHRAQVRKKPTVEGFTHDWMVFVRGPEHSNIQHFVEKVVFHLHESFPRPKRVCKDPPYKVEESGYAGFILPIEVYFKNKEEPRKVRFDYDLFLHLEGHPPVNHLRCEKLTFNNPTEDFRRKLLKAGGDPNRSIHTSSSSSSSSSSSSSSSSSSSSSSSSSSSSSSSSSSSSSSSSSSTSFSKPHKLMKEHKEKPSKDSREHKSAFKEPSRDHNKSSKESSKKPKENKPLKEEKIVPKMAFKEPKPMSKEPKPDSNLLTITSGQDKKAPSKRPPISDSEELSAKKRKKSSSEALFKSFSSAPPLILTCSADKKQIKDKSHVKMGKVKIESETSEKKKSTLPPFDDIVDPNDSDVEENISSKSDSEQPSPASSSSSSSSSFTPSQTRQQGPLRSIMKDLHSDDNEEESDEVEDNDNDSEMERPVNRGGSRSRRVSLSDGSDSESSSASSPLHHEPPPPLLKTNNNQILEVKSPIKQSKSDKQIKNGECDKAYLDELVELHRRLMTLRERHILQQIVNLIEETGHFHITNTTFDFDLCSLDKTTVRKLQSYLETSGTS
ALR H2O2 inh – blocks human ALR sulfhydryl oxidase activity | purified ALR, DTT oxidation, H2O2 HRP-luminol luminescence | 290,000 tested, 3.8% active | P55789 | inhibition, % (no concentration beside the values);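 active = mean and each replicate at 75% or more; inconclusive = only one of the two met; inactive = neither met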;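 note: stock transfer was 7.5 nL into about 7.5 µL; 0% = neutral wells and 100% = wells with inactivated enzyme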
Target sequence (P55789 whole entry, looked up): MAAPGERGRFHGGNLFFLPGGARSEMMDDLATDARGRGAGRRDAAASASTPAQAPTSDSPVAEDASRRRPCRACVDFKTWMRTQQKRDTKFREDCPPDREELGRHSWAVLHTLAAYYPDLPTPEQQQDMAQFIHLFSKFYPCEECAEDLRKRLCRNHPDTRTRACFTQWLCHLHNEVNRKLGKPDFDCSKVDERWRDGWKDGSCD
Calb FLC – affects C. albicans growth with fluconazole. C. albicans CaCi-2 (fluconazole-resistant clinical isolate) + fluconazole, Alamar Blue growth, 48 h. growth inhibition, % (concentration not given with the values). 300,000 tested, 0.57% active;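 active = most replicates above 75%; inconclusive = exactly half above 75%; inactive = most below 75%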;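 note: all wells also contain fluconazole at 8 µg/ml as a sub-toxic cotreatment; 0% = median of DMSO wells and 100% = median of geldanamycin control wells; wells of about 8 µL received 7.5 nL stock; the first replicate is given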
rRNA inh HTS OD600 – also measured in rRNA inh HTS; calls as there; OD600 change, %; measured here: OD600 growth;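 optical density of the mix in the first replicate; 0 = DMSO median and -100 = no signal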
rRNA inh HTS RFP – further read-out of rRNA inh HTS, marked with its call; RFP signal change, %; measured here: RFP humanized mutant strains;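 first replicate; 0 = DMSO median and -100 = no signal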
* = called active by the depositor; i = inactive; ? = inconclusive; / = not tested or not shown; & = joins results of further samples.

Value order – FGF22 binding, RanGTP-Imp inh, Beta cell apopt, T cruzi inh, rRNA inh HTS, rRNA inh HTS OD600, rRNA inh HTS RFP, MLL AF4-AF9 inh, ALR H2O2 inh, Calb FLC
- CCOC(=O)c1c(NC(=S)Nc2cccc(C)c2)sc2c1CC(C)(C)SC2
  i, 2.6, -1, 0, 5, 2, 8.7, -5.4, -21, -9
- O=C(CCN=C1NS(=O)(=O)c2ccccc21)N1CCc2ccccc2C1
  i, -0.1, -1, -1, -9, 2, -2.2, -7.6, /, 21
- CCOc1ccc(N/C(N)=N/c2nc(C)cc(C)n2)cc1
  i, 3.5, /, 8, 2, 4, 0.9, 5.3, -1, -20
- Cc1cc(NC(=O)/C=C\C(=O)O)c([N+](=O)[O-])cc1C
  i, -0.1, -3, -6, /, /, /, -0.7, 6, -3
- CCCN1CCc2c(sc(NC(=O)C3CCN(S(=O)(=O)c4cccs4)CC3)c2C(N)=O)C1
  i, 151*, 0, -7, 4, 7, 3.2, 4.0, -2, -1
- Cc1ccc(-c2ccc(=O)n(CC(=O)NCCN3CCCCC3C)n2)cc1 (stereo not drawn)
  /, -1.9, -8, -20, /, /, /, /, -3, -1
- O=C(NCc1cccnc1)C1CCN(S(=O)(=O)c2cc([N+](=O)[O-])ccc2Cl)CC1
  i, /, -1, /, -3.1*, 8.0*, 5.6*, 0.8, /, /
- COc1cc(OC)c(NC(=O)c2cncn2-c2ccc(F)cc2)cc1Cl
  i, 1.9, -3, -9, -4, -11, 2.1, 4.6, -26, 20
- O=C(OCCCOC(=O)c1ccc(Br)o1)c1ccc(Br)o1
  i, 0.4, -5, 0, 9, -21, 0.6, -30, -2, -1
- NC(=O)C1CCN(C(=O)c2ccc(Oc3cc(Cl)cc(Cl)c3)o2)CC1
  /, 9.5, -6, 6, -20, -26, -3.5, 1.3, 6, 6
- Cc1cccc(C(=O)N=c2sccn2C)c1[N+](=O)[O-]
  i, 1.0, -8, -17, 7, 9, 1.8, 0.2, 25, 13
- C#CCNC(=O)C1=C[C@H](c2ccc(Br)cc2)C[C@H](OCCCCO)O1
  i, -3.2, -1, -5, -18, 4, 9.9, -2.0&-0.4, /, 5
- COc1ccccc1OCCNC(=O)Cc1ccc(Cl)c(Cl)c1
  i, 3.7, -5, -9, -15, -7, -0.4, -4.5, -14, 11
- Cc1cnc(C(=O)OCC(=O)N=c2sccn2Cc2ccccc2Cl)cn1
  i, -0.9, 1, 25, 7, 7, 3.4, -2.5, -1, 2
- CC(=O)Oc1ccc(C(=O)[C@H]2[C@H]3C(=O)N(c4ccccc4)C(=O)[C@H]3[C@@H]3C=CC=NN32)cc1
  /, -0.7, -3, 2, /, /, /, /, 1, 0
- CN1C(=O)/C(=C/c2ccc(O)c([N+](=O)[O-])c2)N(C)C1=S
  i, 1.9, 13, 15, -6, -4, -0.1, 2.3, /, ?
- Cc1ccccc1C(=O)N1CCC(C(=O)Nc2nccs2)CC1
  /, 0.1, 1, -13, /, /, /, -0.9, 0, 3
- CS(=O)(=O)N(Cc1ccc(Cl)cc1)c1ccc(C(=O)N2CCN(c3ccccc3)CC2)cc1
  /, -1.3, 1, 7, /, /, /, /, -35, 11
- C=CCn1c(SCC(=O)c2ccc(O)c(O)c2)nnc1-c1cccnc1
  i, 9.1, 0, -11, 0, 0, -7.0, -39, 99*, -4
- CCCCCCC(C)NC(=S)Nc1cc(S(=O)(=O)N(C)C)ccc1C (stereo not drawn)
  /, 2.6, 7, -16, /, /, /, /, 0, -9
- Cc1cc2c(cc1S(=O)(=O)NCc1ccccc1)n(C)c(=O)c(=O)n2C
  i, -4.5, 7, -15, 10, 13, -0.4, -2.9, -8, 8
- CCCOc1ccc(NC(=O)C2CC(=O)N(C)C(=Nc3cccc(OC)c3)S2)cc1 (stereo not drawn)
  i, 0.3, 4, 19, -1, -7, 6.3, -0.2, -3, -5
- COc1ccc(C(=O)NC2CC2)cc1OC1CCN(Cc2ccccc2)CC1
  i, -1.4, -2, 6, 11, 11, 0.9, -5.3, -3, -34
- CCOC(=O)c1cccc(NC(=O)CN(C)S(=O)(=O)c2cnc[nH]2)c1
  /, 0.5, -4, -9, /, /, /, /, /, -6
- O=c1[nH]c(CCl)nc2cc(-c3ccc(Cl)cc3)sc12
  /, 0.9, -3, 56*, /, /, /, /, /, 0
- COc1ccc(-c2c(NC(=O)c3ccco3)n(-c3ccc(C)cc3)nc(C)c2=O)cc1
  i, 4.6, -4, -8, 3, 0, -2.3, -0.6, -31, -4
- Nn1c(SCc2ccc(Br)cc2)nnc1-c1ccccn1
  i, 1.9, 5, 12, 11, 1, 1.0, 0.2, -18, 4
- CN(C)C(=O)COc1ccc2c(-c3ccccc3)cc(=O)oc2c1
  i, -5.9, /, -13, -11, -9, -7.1, -1.3, -2, -10
- COc1ccc(C(C(=O)NC2CCCCC2)N(C(=O)c2ccccn2)c2cccnc2)c(OC)c1 (stereo not drawn)
  i, 1.7, -3, 8, 8, 13, -0.2, -0.5, /, 25
- O=C(NCC(=O)N(c1cccc(F)c1)C(C(=O)NC1CCCC1)c1cccnc1)c1cccs1 (stereo not drawn)
  i, 5.6, 2, -1, 11, 15, -2.0, -0.9, -7, 8
- CCOc1ccc(C(C)NC(=O)c2cc(=O)[nH]c3ccccc23)cc1OCC (stereo not drawn)
  i, -1.5, /, -4, 1, 1, -4.7, 1.7, 0, -4
- CC(C)c1nc2sc3c(c2c(=O)[nH]1)CC(C)(C)OC3
  i, ?, -3, -28, 11, 22, 1.0, -1.9, -3, -1
- NC(=O)CCCn1c(C(=O)c2cc(Cl)c(N)c(Cl)c2)c2ccc([N+](=O)[O-])cc2[n+]1[O-]
  i, -5.1, 54, 50, -54, -79, -26, 11, -56, 44
- CCc1ccc(-c2nc(CSCC(=O)NCc3ccco3)c(C)o2)cc1
  i, 0.6, /, 0, -21, -24, -4.5, -0.2, /, -11
- S=C1NCCOCCOCCOCCN1
  /, 3.8, -2, -6, /, /, /, /, -4, -1
- Cc1ccc(C(=O)N/N=C\c2ccncc2)s1
  i, 6.3, 2, -16, 7, 13, 0.3, -1.8, 10, -5
- COc1ccc(-c2nc(Cn3c(SCc4ccccc4F)nc4ccncc43)c(C)o2)cc1
  i, 2.3, 19, 36, 2, 6, 1.2, 3.1, 6, 3
- CC(=O)N1CCc2c(sc(NC(=O)CN3C(=O)CCC3=O)c2C(N)=O)C1
  i, 23*, -1, -8, -11, -4, 3.4, -7.2, -28, 5
- CC1N=C(N)C(c2nc3ccccc3n2C)=C1O (stereo not drawn)
  i, -3.6, -3, -10, 11, 11, 1.5, -2.6, -54, 2
- O=C(COC(=O)COc1ccc(Br)cc1)NC1CCCC1
  i, /, -1, /, 2, 6, -3.1, -2.8, -4, /

Part of the list above, with bars between the fields:
SMILES | FGF22 binding | RanGTP-Imp inh | Beta cell apopt | T cruzi inh | rRNA inh HTS | rRNA inh HTS OD600 | rRNA inh HTS RFP | MLL AF4-AF9 inh | ALR H2O2 inh | Calb FLC
CC(C)c1nc2sc3c(c2c(=O)[nH]1)CC(C)(C)OC3 | i | ? | -3 | -28 | 11 | 22 | 1.0 | -1.9 | -3 | -1
NC(=O)CCCn1c(C(=O)c2cc(Cl)c(N)c(Cl)c2)c2ccc([N+](=O)[O-])cc2[n+]1[O-] | i | -5.1 | 54 | 50 | -54 | -79 | -26 | 11 | -56 | 44
CCc1ccc(-c2nc(CSCC(=O)NCc3ccco3)c(C)o2)cc1 | i | 0.6 | / | 0 | -21 | -24 | -4.5 | -0.2 | / | -11
S=C1NCCOCCOCCOCCN1 | / | 3.8 | -2 | -6 | / | / | / | / | -4 | -1
Cc1ccc(C(=O)N/N=C\c2ccncc2)s1 | i | 6.3 | 2 | -16 | 7 | 13 | 0.3 | -1.8 | 10 | -5
COc1ccc(-c2nc(Cn3c(SCc4ccccc4F)nc4ccncc43)c(C)o2)cc1 | i | 2.3 | 19 | 36 | 2 | 6 | 1.2 | 3.1 | 6 | 3
CC(=O)N1CCc2c(sc(NC(=O)CN3C(=O)CCC3=O)c2C(N)=O)C1 | i | 23* | -1 | -8 | -11 | -4 | 3.4 | -7.2 | -28 | 5
CC1N=C(N)C(c2nc3ccccc3n2C)=C1O (stereo not drawn) | i | -3.6 | -3 | -10 | 11 | 11 | 1.5 | -2.6 | -54 | 2

(more compounds)
Value order – FGF22 binding, RanGTP-Imp inh, Beta cell apopt, T cruzi inh, rRNA inh HTS, rRNA inh HTS OD600, rRNA inh HTS RFP, MLL AF4-AF9 inh, ALR H2O2 inh, Calb FLC
- O=C(N/N=C/c1sc(N2CCOCC2)nc1-c1ccccc1)c1cccc(S(=O)(=O)N2CCCC2)c1
  i, -0.3, 107*, 77*, /, /, /, 4.9, /, 88*
- Cc1ccc(S(=O)(=O)NN=C2C3CC4CC(C3)CC2C4)cc1[N+](=O)[O-]
  /, 3.3, 0, -4, /, /, /, /, 3, -8
- Cc1cc2nc(CSc3ccc(Cl)cc3)cc(=O)n2[nH]1
  i, -6.1, -2, -11, -43, -72, -16, -1.1, 0, -3
- O=C(NC(=S)NNC(=O)c1ccccc1[N+](=O)[O-])c1ccc(Br)cc1
  i, 1.6, -3, -13, -36, -64, -3.4, -1.2, 99*, 10
- Cc1cccc(C)c1NC(=O)COC(=O)c1cc(-c2cccnc2)nc2ccccc12
  i, -0.3, -10, -8, -2, 4, 8.0, 1.7, 1, ?
- Cc1cc(OCCOCCNCc2ccccc2)ccc1C(C)C
  i, ?, /, 23, -33, -33, -1.0, 6.6, 1, 4
- C/C(=N\NC(=O)c1cc(-c2ccc(O)cc2)nc2ccccc12)c1cccnc1
  i, -0.8, 2, 3, -3, -5, 2.5, -7.1, 63, 25
- COc1ccccc1CNC(=O)CN1C(=O)NC2(CCOc3ccccc32)C1=O (stereo not drawn)
  i, /, 2, /, 0, 3, -3.1, 3.8, 2, /
- Cc1cccc(N2CCN(C(=O)CCNS(=O)(=O)c3ccc4c(c3)oc(=O)n4C)CC2)c1C
  i, 0.5, 5, -6, -4, -14, 2.3, 0.8, -3, 31

Some of the compounds tested; rates above refer to the full screens.
